Source: PubChem BioAssay (National Center for Advancing Translational Sciences (NCATS))
Sfp PPTase inh: qHTS Assay for Inhibitors of Bacillus subtilis Sfp phosphopantetheinyl transferase (PPTase); 310,000 tested, 3.5% active; AID 1490, 2009; Biochemical Sfp PPTase activity, qHTS; Potency, µM, for inactives: max response, negative = inhibition, actives largely listed as inhibitors; active means well fitted inhibition curve with a large enough effect; inconclusive means small, poorly fitted or top-dose-only effect, or another doubt; inactive means no such curve, though single readings can be large or run the other way;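 further: the enzyme is Sfp with the accession as filed and its product quenches rhodamine fluorescence; potency means the concentration at half of the fitted maximal effect; 0% = enzyme reaction without inhibitor and -100% = no enzyme wells; top concentration of the series not given in the record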
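Fluorescence-quenching assay with 15 nM Sfp, 5 uM rhodamine-CoA and 12.5 uM BHQ-2-labelled ybbR peptide in pH 7.6 Hepes/MgCl2 buffer. Enzyme was pre-incubated with compound for 15 min at room temperature. Rate was taken from the 30-min fluorescence change (525/598 nm).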
Menin-MLL FL inh: qHTS Assay for Inhibitors Targeting the Menin-MLL Interaction in MLL Related Leukemias: Competition With Fluorescein Labeled MLL-derived Peptide | Fluorescence polarization, fluorescein-MLL peptide displacement from menin | FP activity change, % at 61.4 µM | 290,000 tested, under 10 active; inconclusive = falling polarisation curve, or a change in total fluorescence; inactive = total fluorescence flat and polarisation flat or rising; no compound was filed as active; the % refers to the polarisation; negative = inhibition;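 further: % of control where 0% means no effect; inhibitors lower the polarisation; unlabelled MLL peptide was the positive control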
gsp antag: qHTS for Antagonists of gsp, the Etiologic Mutation Responsible for Fibrous Dysplasia/McCune-Albright Syndrome: qHTS | AID 624288, 2012 | 340,000 tested, 0.4% active | Potency, µM (top dose mostly 76.9 µM), for the others: at the highest dose activity change, negative = inhibition, hits mostly inhibitors | gsp-mutant cells, cAMP HTRF, 30 min; control for the full effect not named in the record; active = falling curve of any shape with a large fitted effect; inconclusive = falling curve, mostly with a smaller effect; inactive = flat or rising curve; cell line not stated here;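 further: intracellular cAMP measured with PDE inhibitor Ro 20-1724 present during compound exposure; potency means the concentration at half of the fitted maximal effect; on the % scale 0 is the no-effect control and ±100 the full control effect; nearly all actives have a fitted effect of over 65% in size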
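Cells, 2000/well, grown 16–24 h in DMEM 10% FBS with 0.5 mg/ml G418, then compounds plus […] (300 uM addition stock), 30 min at 37C. cAMP read by HTRF (cAMP-d2 and anti-cAMP antibody-K in lysis buffer) after 30 min RT.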
ClpP mod: qHTS Assay for Activators of ClpP | AID 651965, 2013 | purified B. subtilis ClpP, FRET peptide cleavage, 20 min | 340,000 tested, 1.9% active | ATP-dependent Clp protease proteolytic subunit (Bacillus subtilis (strain 168)), P80244 | Potency, µM (highest dose often 57.5 µM), inactives show top-dose activity change, negative = active; active = well fitted falling curve with a large enough effect; inconclusive = small, poorly fitted or top-dose-only effect; inactive = no such curve, though single readings can be large or run the other way; further: potency means the concentration at half of the fitted maximal effect; the source files actives as falling curves though it sought activators and does not explain the sign; nearly all actives have a fitted effect of over 65% in size; many hits overshoot -100%
Target sequence (P80244 whole entry, looked up): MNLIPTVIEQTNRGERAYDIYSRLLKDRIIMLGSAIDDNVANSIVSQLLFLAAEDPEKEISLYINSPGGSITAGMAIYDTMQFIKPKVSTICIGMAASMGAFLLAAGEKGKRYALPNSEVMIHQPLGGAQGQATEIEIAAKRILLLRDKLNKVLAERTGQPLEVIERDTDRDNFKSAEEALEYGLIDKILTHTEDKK
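ClpP 10 microg/mL final, pH 8 Tris/KCl buffer with BSA, glycerol, Tween-20; compound pinned in; FRET-FV substrate; RT 20 min; Ex320/Em430; ΔFRET vs ADEP 5.8 microM, DMSO, no enzyme.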
gsp agonist: qHTS for Agonist of gsp, the Etiologic Mutation Responsible for Fibrous Dysplasia/McCune-Albright Syndrome: qHTS; gsp mutant cells, cAMP HTRF, 30 min; control for the full effect not named in the record; Potency, µM (series often up to 76.9 µM), without a hit: top-dose activation (cAMP increase), actives largely listed as activators; 340,000 tested, 0.13% active; active = well fitted activation curve with a large enough effect; inconclusive = small, poorly fitted or top-dose-only effect, or another doubt; inactive = no such curve, though single readings can be large or run the other way; cell line not stated here;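 further: phosphodiesterase inhibitor Ro 20-1724 added with compounds to block cAMP breakdown; potency means the concentration at half of the fitted maximal effect; nearly all actives have a fitted effect of over 60% in size; about a fifth of the inactives were tested at one dose only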
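Cells stably selected in G418 were plated at 2000/well, grown 16-24 hr, then given compounds in DMSO with the PDE inhibitor […] (300 uM solution added) for 30 min at 37C; cAMP was read by HTRF.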
CtBP-E1A inh: qHTS Assay for Inhibitors of the CtBP/E1A Interaction; activity change, % (concentration not given with the values); 340,000 tested, 0.49% active; AID 651724, 2012; AlphaScreen GST-E1A/His-CtBP binding, 1536-well; hits give low values; control for the full effect not named in the record; CtBP / adenovirus E1A interaction (AlphaScreen); in the data active means activity change below about -65%; inconclusive means about -30% to -65%; inactive means above about -30%; further: on the % scale 0 is the no-effect control and ±100 the full control effect
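In 5 uL wells, 23 nL compound meets equimolar GST-E1A and His-CtBP (5X stock 125 nM each) for 2 h, 37 °C. Beads (5X, 50 ug/mL) then 1 h, 37 °C, dark.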
TRPV1 PAM: HTS Assay for Compounds that Act as Potentiators of the Vanilloid Receptor 1. Transient receptor potential cation channel subfamily V member 1 (Homo sapiens), Q8NER1. TRPV1-expressing cells, Fluo-8 calcium influx, capsaicin EC20 potentiation; host cell line not named in the record; control for the full effect not named in the record. potentiation, % at 8.33 µM. 320,000 tested, 0.02% active; active means potentiation above 80%; inconclusive means 30% to 80%; inactive means below 30%; further: 0% is about no effect
Target sequence (Q8NER1 whole entry, looked up): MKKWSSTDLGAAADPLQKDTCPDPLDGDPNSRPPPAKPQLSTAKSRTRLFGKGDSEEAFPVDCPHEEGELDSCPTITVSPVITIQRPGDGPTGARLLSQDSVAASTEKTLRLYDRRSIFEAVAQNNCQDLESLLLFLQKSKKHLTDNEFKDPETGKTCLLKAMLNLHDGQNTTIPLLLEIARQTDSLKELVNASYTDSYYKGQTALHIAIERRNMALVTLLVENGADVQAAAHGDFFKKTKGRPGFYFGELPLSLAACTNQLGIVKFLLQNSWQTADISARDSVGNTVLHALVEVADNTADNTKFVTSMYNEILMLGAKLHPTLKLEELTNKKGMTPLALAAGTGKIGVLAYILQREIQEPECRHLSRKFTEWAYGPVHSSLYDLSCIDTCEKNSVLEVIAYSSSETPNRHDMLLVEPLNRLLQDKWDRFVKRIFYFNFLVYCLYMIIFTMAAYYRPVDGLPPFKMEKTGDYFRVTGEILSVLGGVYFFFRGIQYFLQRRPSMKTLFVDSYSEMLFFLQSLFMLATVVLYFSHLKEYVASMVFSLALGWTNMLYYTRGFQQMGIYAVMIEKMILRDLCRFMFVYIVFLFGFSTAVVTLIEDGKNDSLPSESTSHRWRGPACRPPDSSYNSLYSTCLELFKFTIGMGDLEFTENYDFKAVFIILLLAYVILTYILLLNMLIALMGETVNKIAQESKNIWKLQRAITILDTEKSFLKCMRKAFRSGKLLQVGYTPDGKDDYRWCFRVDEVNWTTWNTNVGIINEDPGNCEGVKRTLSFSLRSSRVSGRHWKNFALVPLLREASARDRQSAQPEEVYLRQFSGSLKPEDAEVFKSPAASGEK
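Fluo-8 calcium influx in TRPV1-expressing cells, kinetic read (ex 480/em 520 nm). Compound added and read 3 min for agonist activity, followed by capsaicin at EC20 final and 2 min further read for enhancement.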
* marks the source's active call; other numbers are inactive results; ? = inconclusive; . = no result given; & = joins results of further samples; [ ] = another dose, or the depositor's remark. Outcome played no part in choosing rows; overall some 5.3% were active at least once.

nr	SMILES	Sfp PPTase inh	TRPV1 PAM	gsp agonist	gsp antag
1	CCC(=O)Nc1ccc(C(=O)N/N=C/c2cc(Br)c(OC)cc2OC)cc1	21%	-5	1%	-12%
2	COc1cc(OC)cc(-c2cc3cc(F)ccc3cn2)c1	.	.	.	-12%
3	O=C(Nc1ncc(Br)s1)C1CCCN1S(=O)(=O)c1cccc2cccnc12 (stereo not given)	3%	3	5%	0%
4	CNC(=O)c1ccc(-c2ccc(OC)cc2)s1	18%	-10	20%	3%[15.4 µM]
5	Cc1cc(C)cc(-c2nnc(SCC(=O)Nc3cc(C)on3)o2)c1	.	-6	-3%[15.4 µM]	4%
6	COc1ccc(C(=O)COC(=O)c2cc(=O)c3ccccc3o2)cc1	.	.	-24%	-13%
7	CC(C(=O)Nc1nc(-c2ccc(F)c(F)c2)cs1)N1C(=O)C2CC=CCC2C1=O (stereo not given)	.	9	-3%	35µM*
8	O=C(CCn1c(=O)[nH]c2ccsc2c1=O)N1CCN(c2cccc(Cl)c2)CC1	-4%	16	?	-21%

nr	ClpP mod	Menin-MLL FL inh	CtBP-E1A inh
1	?	7.8	2
2	?	.	11
3	-1.1%	4.6	-7
4	-22%	3.5	-1
5	.	.	-65*
6	.	.	-9
7	-0.4%	.	.
8	2.1%	-3.0	-3

Part of the list above, with each value named:
[5] Cc1cc(C)cc(-c2nnc(SCC(=O)Nc3cc(C)on3)o2)c1
  Sfp PPTase inh = .
  TRPV1 PAM = -6
  gsp agonist = -3%[15.4 µM]
  gsp antag = 4%
  ClpP mod = .
  Menin-MLL FL inh = .
  CtBP-E1A inh = -65*
[6] COc1ccc(C(=O)COC(=O)c2cc(=O)c3ccccc3o2)cc1
  Sfp PPTase inh = .
  TRPV1 PAM = .
  gsp agonist = -24%
  gsp antag = -13%
  ClpP mod = .
  Menin-MLL FL inh = .
  CtBP-E1A inh = -9
[7] CC(C(=O)Nc1nc(-c2ccc(F)c(F)c2)cs1)N1C(=O)C2CC=CCC2C1=O (stereo not given)
  Sfp PPTase inh = .
  TRPV1 PAM = 9
  gsp agonist = -3%
  gsp antag = 35µM*
  ClpP mod = -0.4%
  Menin-MLL FL inh = .
  CtBP-E1A inh = .
[8] O=C(CCn1c(=O)[nH]c2ccsc2c1=O)N1CCN(c2cccc(Cl)c2)CC1
  Sfp PPTase inh = -4%
  TRPV1 PAM = 16
  gsp agonist = ?
  gsp antag = -21%
  ClpP mod = 2.1%
  Menin-MLL FL inh = -3.0
  CtBP-E1A inh = -3

The list goes on.
nr	SMILES	Sfp PPTase inh	TRPV1 PAM	gsp agonist	gsp antag
9	Cc1ccc(/C(O)=C2/C(=O)C(=O)N(CC(=O)O)C2c2ccc([N+](=O)[O-])cc2)cc1 (stereo not given)	0%	4	-2%	0%
10	O=[N+]([O-])c1cccc(COc2cccc(CN3CCOCC3)c2)c1	.	.	.	8%
11	O=C(NC1CCSC1=O)C1CC(=O)N(c2ccc(F)cc2)C1 (stereo not given)	13%	-17	17%	-14%
12	CCOc1ccc(C(=O)CCC(=O)N(CC)CC(=O)NCc2cccs2)cc1	.	-1	10%	5%
13	Cc1ccc(C(=O)N2CCN(c3nc4ccccc4n3C)CC2)cc1	9%	19	-2%	-3%
14	CCc1ccc(/C=C\C(=O)N2CCc3ccccc3C2)cc1	-4%	-10	-4%	-8%
15	Cc1ccc(S(=O)(=O)N2CCCCC2)cc1NC(=O)CNCc1ccco1	6.3µM*	26	17%	1%
16	CC(C)NC(=O)CN1C(=O)CSc2ccc(S(=O)(=O)N3CCCC3)cc21	19%	5	-30%[inhibitor]	-1%

nr	ClpP mod	Menin-MLL FL inh	CtBP-E1A inh
9	.	-2.6	-9
10	0.2%	.	-26
11	.	-7.2	-1
12	-3.0%	.	-16
13	-1.1%	-12	-3
14	-5.3%	-0.4	13
15	-0.2%	-0.3	.
16	-1.0%	4.1	-2

Next part.
nr	SMILES	Sfp PPTase inh	TRPV1 PAM	gsp agonist	gsp antag
17	CCOC(=O)C1CCCN(C(=O)CSCc2ccccc2)C1 (stereo not given)	4%	-23	-26%	14%
18	C=CCNC(=O)N1CCc2[nH]c3ccc(F)cc3c2C1	-2%	-2	-23%	-8%
19	O=C(CSc1nnc(-c2cccs2)n1-c1ccccc1)N1CCCC1	11%	5	-22%	-8%
20	Cc1cc(Nc2cccc(Cl)c2)nc(-c2ccccc2O)n1	9%	-7	-50%[inhibitor][15.4 µM]	-19%
21	CS(=O)(=O)N(CC(=O)NCC1CCCO1)c1ccc(F)c(Cl)c1 (stereo not given)	8%	-3	29%	-3%
22	O=C(NCCCn1ccnc1)C1CCN(S(=O)(=O)c2cc([N+](=O)[O-])ccc2Cl)CC1	.	.	8%	2%
23	C=CCn1c(SC(C)C(=O)c2c(N)n(C)c(=O)n(C)c2=O)nnc1-c1ccoc1C (stereo not given)	.	-1	-28%	-2%
24	O=C(CCN1C(=O)/C(=C/c2ccco2)SC1=S)Nc1ccc(O)cc1C(=O)O	-18%	20	-6%[15.4 µM]	-17%

nr	ClpP mod	Menin-MLL FL inh	CtBP-E1A inh
17	-1.5%	3.7	2
18	-8.8%	-20	.
19	-16%	4.3	-3
20	.	3.8	7
21	-1.8%	-0.8	-2
22	-11%	.	4
23	0.5%	.	.
24	1.0%	?	0

More compounds follow:
nr	SMILES	Sfp PPTase inh	TRPV1 PAM	gsp agonist	gsp antag
25	Cc1ccc(C23CC4CC(CC(C(=O)NC(C)C(N)=O)(C4)C2)C3)cc1 (stereo not given)	2%	-1	5%	-4%
26	COc1ccc(C2CC(C(F)(F)F)n3nc(C(=O)NCc4cn(C)nc4C)c(Cl)c3N2)cc1 (stereo not given)	-3%	-8	-7%	-10%
27	CC(C)C(=O)Nc1ccc(N2CCN(C(=O)c3cccs3)CC2)cc1	9%	11	-69%[inhibitor]	-4%
28	COc1cc(OC)cc(-c2nnc(SCc3c(F)cccc3Cl)o2)c1	?	-2	2%	6%
29	O=C(O)c1ccc(S(=O)(=O)c2ccc([N+](=O)[O-])cc2[N+](=O)[O-])cc1	79µM*	-7	12%	8%
30	CCOC(=O)c1ccc(CNCc2ccccc2)cc1	8%	-13	-40%[inhibitor]	16%
31	Cc1ccc(C(=O)Nc2nc3ccccc3c(=O)s2)cc1	56µM*	0	9%	54%[activator]
32	COc1cc(N=C2C(=O)N3c4c(cccc42)C(C)=CC3(C)C)cc(OC)c1	6%	3	?	12%

nr	ClpP mod	Menin-MLL FL inh	CtBP-E1A inh
25	0.5%	-1.7	.
26	0.3%	2.2	1
27	0.8%	2.2	-8
28	-19%	4.4	11
29	-2.7%	?	-12
30	-2.0%	-0.6	-7
31	-1.3%	2.6	9
32	0.6%	1.0	22

(more compounds)
nr	SMILES	Sfp PPTase inh	TRPV1 PAM	gsp agonist	gsp antag
33	Cc1cc(Cl)cc(C)c1OCC(=O)N1CCN(c2ncccn2)CC1	.	4	2%	-12%
34	CN(CCOC(=O)c1ccc2c(c1)OCO2)C(C)(C)C	13%	-12	-3%	-13%
35	Cc1ccc(/C=C/C(=O)O)cc1S(=O)(=O)NCC1CCCO1 (stereo not given)	10%	-5	17%[15.4 µM]	8%
36	Cc1cc(C)c(NC(=O)CNC(=O)c2ccccc2SCC(=O)N2CCCC2)c(C)c1	.	18	-40%[inhibitor]	4%
37	COc1ccc(/C(O)=C/C(=O)C(=O)NNC(=O)c2ccccc2)cc1	-1%	-12	-23%[15.4 µM]	-8%
38	Cc1cccc(N2C(=O)/C(=C/c3cccnc3)SC2=S)c1	14%	-8	6%	?
39	N#Cc1ccccc1COc1ccc(/C=C/C(=O)O)cc1	22%	2	0%[15.4 µM]	0%
40	COc1cccc(N2CC(NS(=O)(=O)c3ccc(Cl)cc3)CC2=O)c1 (stereo not given)	.	17	-13%[15.4 µM]	-7%

nr	ClpP mod	Menin-MLL FL inh	CtBP-E1A inh
33	-10%	.	7
34	-19%	-0.3	-9
35	.	0.2	.
36	-0.7%	.	-1
37	.	?	-6
38	.	3.6	0
39	.	-5.5	7
40	.	.	8

Later entries
nr	SMILES	Sfp PPTase inh	TRPV1 PAM	gsp agonist	gsp antag
41	Fc1cccc(NC(=S)NCc2cccnc2)c1	-5%	-8	?	7%
42	CCN1CCN(C(=O)C2CCC(CNS(=O)(=O)c3ccccc3)CC2)CC1 (stereo not given)	1%	-2	-69%[inhibitor]	4%
43	O=C(COC(=O)/C=C/c1ccccc1)NCc1cccs1	.	-23	-1%	3%
44	COc1cccc(C=Nc2cccc3c(=O)[nH][nH]c(=O)c23)c1O	10%	-4	-30%	-1%
45	COc1cccc(NC(=O)CN(C)CC(=O)Nc2ccc(C)c(S(=O)(=O)N3CCOCC3)c2)c1	.	.	?	?
46	CN(C)c1ccc(CNS(=O)(=O)c2csc(C(N)=O)c2)cc1	7%	1	-7%	1%
47	Cc1cccc(/C=N/n2c(-c3ccco3)n[nH]c2=S)c1	?	-2	-11%	1%
48	O=C(c1nc2ccccn2c1CNCCCn1ncc2ccccc21)N1CCCC1	-9%	-6	23%[15.4 µM]	-3%

nr	ClpP mod	Menin-MLL FL inh	CtBP-E1A inh
41	-1.6%	1.7	1
42	-6.1%	2.7	6
43	-1.5%	.	.
44	-0.7%	0.6	.
45	1.8%	.	8
46	-0.6%&-2.0%	.	.
47	1.1%	-5.2	-1
48	.	-1.2	0
